High-throughput results (PubChem)
CSC inhib = cancer stem cell viability inhibitors, primary screen, luminescence; 300,000 tested, 1.1% active; inhibition, % at 7.5 µM; cancer stem cell-like cells viability;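 active = mean at 75% or more and at least half the replicates too; tested in HMLE shEcad cells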;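 note: 0% = median of negative and 100% = median of positive control wells; the first replicate is given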
eIF4H FP inh = human eIF4H binding inhibitors, primary screen, translation initiation inhibitor project, biochemical, uHTS, fluorescence polarization; eIF4H fluorescence polarization binding assay; inhibition, % at 35 µM; 290,000 tested, 0.94% active; AID 2012, 2009;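 active = 50% or more with normal probe brightness, or confirmed in later tests; about a fifth of its hits are not listed in these tables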;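 note: calls also rest on retests at 20 µM and on dose response follow-up; 0% = protein and probe with vehicle and 100% = probe without protein; strong numbers were not always called active; many hits fall short of the cut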
Yeast UUG start = modulators of yeast start codon fidelity, primary screen, whole organism, S. cerevisiae, single point, plate reader; AID 602363, 2012; 350,000 tested, 0.13% active; S. cerevisiae UUG-firefly luciferase reporter, luminescence/redox ratio; activity score, % at 18.7 µM;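 active = replicate mean at a twofold rise or more, about +100% in these data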;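 note: firefly luciferase made from a UUG start codon reports start codon fidelity; reporter light over untreated wells divided by growth signal over untreated wells; some hits fall short of that in this replicate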
Env fusion inh = inhibitors of HIV-1 Env-driven cell-cell fusion, primary screen, HeLa-JRFL effector, CEM21 target cells, luciferase | inhibition, % at 12.3 µM | 360,000 tested, 1.1% active;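 active = mean replicate inhibition score of at least 50 and every replicate individually at or above 50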;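 note: 0% = plate neutral controls and 100% = maraviroc near 300 nM; one replicate is shown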
PABP FP inh = PABP poly(A) RNA binding inhibitors, primary screen, biochemical, fluorescence polarization, uHTS; inhibition, % at 35 µM; 290,000 tested, 1% active; AID 2014, 2009;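 active = 50% or more with normal probe brightness, or confirmed in later tests; about a fifth of its hits are not listed in these tables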;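 note: calls also rest on retests at 20 µM and on dose response follow-up; controls were probe without protein and protein plus probe with vehicle; some compounds called inactive have numbers as strong as hits; many hits fall short of the cut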
Target sequence (P11940 whole entry, looked up): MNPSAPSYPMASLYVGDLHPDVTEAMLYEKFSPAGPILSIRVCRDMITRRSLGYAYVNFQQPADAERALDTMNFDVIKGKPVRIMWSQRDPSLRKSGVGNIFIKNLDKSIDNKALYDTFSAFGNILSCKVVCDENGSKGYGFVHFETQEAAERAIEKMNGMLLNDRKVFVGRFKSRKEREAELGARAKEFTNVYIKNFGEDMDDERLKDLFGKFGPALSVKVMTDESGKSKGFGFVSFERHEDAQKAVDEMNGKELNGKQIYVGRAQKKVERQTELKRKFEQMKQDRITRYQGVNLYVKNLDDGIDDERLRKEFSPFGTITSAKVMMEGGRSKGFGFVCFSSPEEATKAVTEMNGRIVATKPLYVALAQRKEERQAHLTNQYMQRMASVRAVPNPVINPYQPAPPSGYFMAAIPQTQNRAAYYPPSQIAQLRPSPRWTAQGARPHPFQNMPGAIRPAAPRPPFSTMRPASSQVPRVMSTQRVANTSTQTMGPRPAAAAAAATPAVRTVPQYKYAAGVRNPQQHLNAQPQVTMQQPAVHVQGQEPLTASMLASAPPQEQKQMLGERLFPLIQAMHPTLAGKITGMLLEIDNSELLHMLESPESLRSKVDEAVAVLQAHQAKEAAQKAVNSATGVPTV
Rce1 inh = yeast Rce1p protease inhibitors, primary screen, biochemical, fluorescence, cell-free homogeneous; CAAX prenyl protease 2 (Saccharomyces cerevisiae (strain ATCC 204508 / S288c)), Q03530; yeast membranes, quenched prenylated peptide cleavage fluorescence; calls only; 290,000 tested, 0.27% active; AID 2563, 2010;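 active = fall in fluorescence gain of 50% or more versus controls, with final raw signal at or below 3038400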;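 note: plate controls were neutral control wells for no effect and wells lacking membranes for full effect; tested at 10 µM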
MT1-MMP act inh = blockers of MT1-MMP proenzyme processing, primary screen, HT1080 RFP-PRO-GFP cells, GFP/RFP fluorescence | Matrix metalloproteinase-14 (Homo sapiens), P50281 | GFP/RFP ratio fluorescence, overnight; percent of plate control window, DMSO zero | GFP/RFP ratio change, % at 20 µM | 360,000 tested, 0.061% active | AID 651647, 2012;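 active = GFP/RFP ratio change of at least 30% with cell ATP level not reduced by more than half and red fluorescence within 50% of control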; note: strong numbers were not always called active
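Test system: HT1080 cells expressing an RFP-PRO-GFP fluorescent reporter construct / Compound dosing: single-point 20 µM compound, 1% DMSO / Schedule: cells overnight before dosing, compound overnight, 37 °C, 5% CO2 / Evaluation: GFP/RFP fluorescence ratio / Control set: DMSO and RFP-L50D-GFP cell wells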
MT1-MMP act inh RFP = recorded beside MT1-MMP act inh, whose call it bears; RFP signal change, %; measured here: RFP expression control read;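 0 = vehicle wells; hits needed this value within 50% of zero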
Active calls of the source: *. Compounds were not picked by outcome; overall some 2.9% were active at least once.

The first 6 entries, ahead of the listing:
For FC(F)(F)c1nc2ccccc2nc1N/N=C/c1ccc(Cl)cc1 the results were CSC inhib -1, eIF4H FP inh 1, Yeast UUG start -22, PABP FP inh 2, Rce1 inh inactive, MT1-MMP act inh 7 and MT1-MMP act inh RFP 0.
Screening CCN(CC)CCN(Cc1cc2cc(C)ccc2[nH]c1=O)C(=S)Nc1ccccc1 returned CSC inhib -2, eIF4H FP inh -5, Yeast UUG start -14, Env fusion inh -233, PABP FP inh -1, Rce1 inh inactive, MT1-MMP act inh -6 and MT1-MMP act inh RFP -5.
For Cn1c(COc2ccc(F)cc2)nc2ccccc21 the results were CSC inhib -4, eIF4H FP inh 6, Yeast UUG start -7, Env fusion inh -55, PABP FP inh -9, Rce1 inh inactive, MT1-MMP act inh -2 and MT1-MMP act inh RFP 1.
Screening Nc1nc(Br)c2c(F)cccc2c1-c1ccccc1 returned eIF4H FP inh 4, Yeast UUG start 1, Env fusion inh -20, PABP FP inh 0, Rce1 inh inactive, MT1-MMP act inh -15 and MT1-MMP act inh RFP -10.
`CN(NS(=O)(=O)c1ccc(Cl)cc1)c1cnn(C)c(=O)c1Cl` gave CSC inhib -7, eIF4H FP inh 6, Yeast UUG start 0, Env fusion inh 7, PABP FP inh 2, Rce1 inh inactive, MT1-MMP act inh -2 and MT1-MMP act inh RFP -1.
O=C(Oc1coc(CSc2ncccn2)cc1=O)c1ccc(Br)o1 was read as CSC inhib 6, eIF4H FP inh 13, PABP FP inh 14, Rce1 inh inactive, MT1-MMP act inh 3 and MT1-MMP act inh RFP 3.

The listing, repeating the preview:
For FC(F)(F)c1nc2ccccc2nc1N/N=C/c1ccc(Cl)cc1 the results were CSC inhib -1, eIF4H FP inh 1, Yeast UUG start -22, PABP FP inh 2, Rce1 inh inactive, MT1-MMP act inh 7 and MT1-MMP act inh RFP 0.
Screening CCN(CC)CCN(Cc1cc2cc(C)ccc2[nH]c1=O)C(=S)Nc1ccccc1 returned CSC inhib -2, eIF4H FP inh -5, Yeast UUG start -14, Env fusion inh -233, PABP FP inh -1, Rce1 inh inactive, MT1-MMP act inh -6 and MT1-MMP act inh RFP -5.
For Cn1c(COc2ccc(F)cc2)nc2ccccc21 the results were CSC inhib -4, eIF4H FP inh 6, Yeast UUG start -7, Env fusion inh -55, PABP FP inh -9, Rce1 inh inactive, MT1-MMP act inh -2 and MT1-MMP act inh RFP 1.
Screening Nc1nc(Br)c2c(F)cccc2c1-c1ccccc1 returned eIF4H FP inh 4, Yeast UUG start 1, Env fusion inh -20, PABP FP inh 0, Rce1 inh inactive, MT1-MMP act inh -15 and MT1-MMP act inh RFP -10.
`CN(NS(=O)(=O)c1ccc(Cl)cc1)c1cnn(C)c(=O)c1Cl` gave CSC inhib -7, eIF4H FP inh 6, Yeast UUG start 0, Env fusion inh 7, PABP FP inh 2, Rce1 inh inactive, MT1-MMP act inh -2 and MT1-MMP act inh RFP -1.
O=C(Oc1coc(CSc2ncccn2)cc1=O)c1ccc(Br)o1 was read as CSC inhib 6, eIF4H FP inh 13, PABP FP inh 14, Rce1 inh inactive, MT1-MMP act inh 3 and MT1-MMP act inh RFP 3.
Screening CCCCS(=O)(=O)Nc1ccc2ncn(C)c(=O)c2c1 returned CSC inhib 0, eIF4H FP inh -9, Yeast UUG start -3, PABP FP inh 28, Rce1 inh inactive, MT1-MMP act inh 17 and MT1-MMP act inh RFP 1.
`COCCCN1C(=O)C(CC(=O)NCC2CCCCC2)CC(C(=O)N(C)C)=C1C` (centres undefined) gave Yeast UUG start -13, Env fusion inh 35, MT1-MMP act inh 0 and MT1-MMP act inh RFP 3.
Screening CC(C)(C)NC(=O)CSc1nc(O)cc(=O)n1-c1ccccc1 returned CSC inhib -4, eIF4H FP inh 0, Yeast UUG start -6, PABP FP inh 6, Rce1 inh inactive, MT1-MMP act inh -2 and MT1-MMP act inh RFP 4.
Screening Cc1ccccc1NC(=O)COC(=O)c1cc(S(=O)(=O)N2CCOCC2)ccc1C returned Yeast UUG start -3, Env fusion inh -9, MT1-MMP act inh 0 and MT1-MMP act inh RFP -3.
NC(=O)CC(NC(=O)Cc1ccc(Br)cc1)c1ccc(NCCc2ccc(Cl)cc2)c([N+](=O)[O-])c1 (centres undefined) was read as eIF4H FP inh 23, Yeast UUG start -20, Env fusion inh 48, PABP FP inh 2, Rce1 inh inactive, MT1-MMP act inh 3 and MT1-MMP act inh RFP -10.
Screening CCOc1ccc(NC(=O)c2c(OC)cccc2OC)cc1 returned CSC inhib 0, eIF4H FP inh -3, Env fusion inh 5, PABP FP inh 10, Rce1 inh inactive, MT1-MMP act inh -2 and MT1-MMP act inh RFP 1.
`O=C(NC1CCN(C(=O)NCc2ccccc2)CC1)c1cccc(F)c1` gave CSC inhib 6, eIF4H FP inh -11, Yeast UUG start -4, Env fusion inh -5, PABP FP inh -5, Rce1 inh inactive, MT1-MMP act inh 0 and MT1-MMP act inh RFP -2.
Screening O=C(COC(=O)c1cccc(S(=O)(=O)N2CCCC2)c1)Nc1ccc(Cl)cc1 returned Yeast UUG start -15, Env fusion inh 0, MT1-MMP act inh 3 and MT1-MMP act inh RFP 4.
Screening Cc1nnc(SCCCn2c(N3CCCCC3)nc3c2c(=O)[nH]c(=O)n3C)s1 returned CSC inhib -8, eIF4H FP inh -9, Yeast UUG start -5, Env fusion inh -42, PABP FP inh 5, Rce1 inh inactive, MT1-MMP act inh 2 and MT1-MMP act inh RFP -2.
`O=C(Nc1ccccc1Cc1ccccc1)c1ccccc1NS(=O)(=O)c1ccc(Cl)s1` gave CSC inhib active, eIF4H FP inh 3, Yeast UUG start -20, Env fusion inh 67*, PABP FP inh 4, Rce1 inh inactive, MT1-MMP act inh -15 and MT1-MMP act inh RFP -33.
`O=C(Nc1ccccc1)C1CCN(C(=O)c2ccccc2)CC1` gave CSC inhib -8, eIF4H FP inh 3, Yeast UUG start -20, PABP FP inh -2, Rce1 inh inactive, MT1-MMP act inh -9 and MT1-MMP act inh RFP 4.
For Cc1onc(-c2ccccc2Cl)c1C(=O)Nc1ccc(-c2nnc3n2CCCCC3)cc1 the results were CSC inhib 13, eIF4H FP inh 5, Yeast UUG start 10, Env fusion inh -53, PABP FP inh 7, Rce1 inh inactive, MT1-MMP act inh -3 and MT1-MMP act inh RFP 0.
For CC1CCN(c2nc(/C=C/c3ccccc3)nc3ccccc23)CC1 the results were CSC inhib -6, eIF4H FP inh -13, Env fusion inh -2, PABP FP inh 7, Rce1 inh inactive, MT1-MMP act inh -3 and MT1-MMP act inh RFP -4.
`CCOc1ccc(NC(C)=O)cc1` gave CSC inhib 4, eIF4H FP inh -53, Yeast UUG start -20, Env fusion inh 14, PABP FP inh 10, Rce1 inh inactive, MT1-MMP act inh 2 and MT1-MMP act inh RFP 5.
CCSC1=NCCN1C(=O)c1c(-c2ccccc2Cl)noc1C was read as CSC inhib -9, eIF4H FP inh -4, Env fusion inh -7, PABP FP inh 7, Rce1 inh inactive, MT1-MMP act inh -4 and MT1-MMP act inh RFP 2.
`CCN(C[C@H]1N[C@@](C)(C(=O)OC)[C@H]2C(=O)N(C)C(=O)[C@@H]12)S(=O)(=O)c1ccc(-c2ccccc2)cc1` gave Yeast UUG start -15, Env fusion inh -57, MT1-MMP act inh 1 and MT1-MMP act inh RFP -2.
COCc1cccc(-c2csc(C(O)c3ccc(OC)cc3)n2)c1 (centres undefined) was read as Yeast UUG start -7, Env fusion inh -15, MT1-MMP act inh -3 and MT1-MMP act inh RFP -10.
Screening OC(COc1ccc2ccccc2c1)Cn1cncn1 (centres undefined) returned CSC inhib -6, eIF4H FP inh -19, Yeast UUG start -2, Env fusion inh -15, PABP FP inh -2, Rce1 inh inactive, MT1-MMP act inh 6 and MT1-MMP act inh RFP -1.
`Cc1ccccc1C(=O)Nc1c2c(nc3ccccc13)CCCC2` gave CSC inhib 8, eIF4H FP inh 1, Yeast UUG start -10, Env fusion inh -30, PABP FP inh 7, Rce1 inh inactive, MT1-MMP act inh -2 and MT1-MMP act inh RFP 0.
Cc1ccc(C(=O)N/N=C/c2sc(=O)n(Cc3cccc(C(=O)O)c3)c2Cl)cc1 was read as CSC inhib -6, eIF4H FP inh -8, Yeast UUG start -21, PABP FP inh 7, Rce1 inh inactive, MT1-MMP act inh 3 and MT1-MMP act inh RFP 3.
Screening COc1ccccc1/C=C/C=N/NC(=O)c1ccco1 returned CSC inhib -3, eIF4H FP inh 6, Yeast UUG start 12, Env fusion inh -5, PABP FP inh 0, Rce1 inh inactive, MT1-MMP act inh 4 and MT1-MMP act inh RFP 2.
CCOc1cc(/C=C2\SC(=S)N(NS(=O)(=O)c3ccc(C)cc3)C2=O)ccc1O was read as CSC inhib 12, Yeast UUG start -12, Env fusion inh 1, Rce1 inh inactive, MT1-MMP act inh 11 and MT1-MMP act inh RFP 33.
Screening Cc1nc(-c2ccc(S(=O)(=O)Nc3ccc(Br)cc3Cl)s2)cs1 returned eIF4H FP inh 2, Yeast UUG start -18, Env fusion inh 5, PABP FP inh 7, Rce1 inh inactive, MT1-MMP act inh 1 and MT1-MMP act inh RFP 1.
Cc1csc(NC(=O)C2CCCN2C(=O)Oc2ccccc2)n1 (centres undefined) was read as CSC inhib -2, eIF4H FP inh -2, Yeast UUG start -22, Env fusion inh -6, PABP FP inh 22, Rce1 inh inactive, MT1-MMP act inh -5 and MT1-MMP act inh RFP 3.
Cc1nn2cnc3sc4c(c3c2nc1=O)CCCC4 was read as CSC inhib 6, eIF4H FP inh 4, Yeast UUG start -19, PABP FP inh -9, Rce1 inh inactive, MT1-MMP act inh 2 and MT1-MMP act inh RFP 3.
Cc1ccc(C2SCC(C(=O)O)N2C(=O)c2ccc(F)cc2)cc1 (centres undefined) was read as CSC inhib -8, eIF4H FP inh 31, Env fusion inh 20, PABP FP inh 6, Rce1 inh inactive, MT1-MMP act inh -2 and MT1-MMP act inh RFP 2.
Screening O=C(COc1ccccc1)Nc1nc(-c2cccs2)cs1 returned eIF4H FP inh -10, Yeast UUG start -12, PABP FP inh -9, Rce1 inh inactive, MT1-MMP act inh 10 and MT1-MMP act inh RFP -2.
`COc1ccc2oc(C(=O)OCC(=O)Nc3cccc(S(=O)(=O)N4CCOCC4)c3)c(C)c2c1` gave CSC inhib -17, Yeast UUG start -10, Env fusion inh 36, Rce1 inh inactive, MT1-MMP act inh 6 and MT1-MMP act inh RFP -3.
`O=C(Nc1nnc(SCCC2OCCO2)s1)C1CC(=O)N(c2ccccc2)C1` (centres undefined) gave CSC inhib 8, eIF4H FP inh 4, Yeast UUG start -20, Env fusion inh 5, PABP FP inh 0, Rce1 inh inactive, MT1-MMP act inh -5 and MT1-MMP act inh RFP -5.
`O=C(c1ccco1)N1CCN(Cc2nc(Cc3ccccc3)no2)CC1` gave CSC inhib -3, eIF4H FP inh 1, Env fusion inh -12, PABP FP inh 5, Rce1 inh inactive, MT1-MMP act inh -2 and MT1-MMP act inh RFP -1.
`COc1ccc(NC(=O)NC(C(F)(F)F)C(F)(F)F)cc1` gave CSC inhib -3, eIF4H FP inh -7, Yeast UUG start -13, PABP FP inh -4, Rce1 inh inactive, MT1-MMP act inh -1 and MT1-MMP act inh RFP -2.
COc1ccc(S(=O)(=O)NNC(N)=S)cc1 was read as CSC inhib -6, eIF4H FP inh -3, Env fusion inh 10, PABP FP inh 49, Rce1 inh inactive, MT1-MMP act inh -3 and MT1-MMP act inh RFP 4.
